Screens from PubChem BioAssay.
H5N1 CPE – antiviral screen in MDCK cells, H5N1 avian flu; cytopathic effect, luminescence, 72 h; active compounds read high; no value below 0 was filed and about half of the inactive calls have no number; reference of the scale not given here; inhibition, % at 50 µM; 0.07% of 96,000 active; in the data active = inhibition above about 25%
Active calls of the source: *; i = inactive. An excerpt (hit frequency here may not be typical).

# | smiles | H5N1 CPE
1 | CN(C)c1ccc(-c2noc(C3CCN(S(=O)(=O)c4cccc(C(=O)O)c4)CC3)n2)cc1 | 0.8
2 | CCc1nc(C)cn1S(=O)(=O)c1cc(Br)ccc1OC | 0.6
3 | CCOC(=O)C1CCCN(c2ncnc3c2cnn3-c2ccc(Cl)cc2)C1 (stereo unspecified) | 1.0
4 | COc1cccc(-n2nnnc2SCC(=O)NCc2ccco2)c1 | 1.3
5 | COc1cccc(N2C(=O)C3CCCN3C2c2ccc(F)cc2)c1 (stereo unspecified) | i
6 | COC(=O)c1cc(Oc2ccc(C(=O)OC)cc2N)cc(C(=O)OC)c1 | i
7 | CCCCNc1cc(NC(C)=O)cc2cc(OC)c(OC)cc12 | i
8 | COc1ccc(COC(=O)NNC(=O)c2ccccc2Cl)cc1 | i
9 | CCOC(=O)CNC(=O)CSc1nnnn1-c1cc(C)ccc1C | 0.6
10 | c1ccc(-c2csc3ncn4cnnc4c23)cc1 | 1.5
11 | CCOC(=O)N1CCC(NC(=O)c2cccnc2SC)CC1 | 1.9
12 | CCOC(=O)C1C(=O)NC(c2ccccc2)=NC1c1ccc(C(C)C)cc1 (stereo unspecified) | 1.0
13 | Cc1ccc(-c2csc(C(C#N)=C3CCCC3)n2)cc1 | i
14 | COc1ccc(CNC(=O)C2CC=CCC2C(=O)O)cc1OC (stereo unspecified) | i
15 | CCCNC(=O)N1CCN(C(=O)NCCC)CC1 | 2.0
16 | O=C(Cn1sc2ccccc2c1=O)NC12CC3CC(CC(C3)C1)C2 | i
17 | O=C(c1cccc(-n2cnnn2)c1)N1CCOCC1 | 0.5
18 | CCCCCC(=O)Nc1ccc(N2CCN(CC)CC2)c(Cl)c1 | i
19 | Cc1cccc(N(C(=O)c2sc(C)nc2C)C(C(=O)NCc2ccco2)c2ccccc2)c1 (stereo unspecified) | 1.1
20 | CCOC(=O)C1CCN(C(=O)CCc2ccccc2)CC1 | 1.1
21 | CCOC(=O)c1sc2ccc(S(=O)(=O)N3CCCCC3)cc2c1N | 11.2
22 | Cc1cc(N2CCC(C(=O)NC3CC3)CC2)nc(-c2ccccc2)n1 | i
23 | CC(C)C(=O)Nc1cccc(-c2nc3ccccc3o2)c1 | 0.7
24 | CCCS(=O)(=O)N1CCC(C(=O)NCCc2ccc(OC)c(OC)c2)CC1 | i
25 | O=C(Nc1ccc(F)cc1F)c1noc2c1CCC2 | 0.3
26 | COc1ccc(C(=O)NC(=S)N2CCC(C)CC2)cc1 | 0.2
27 | CCOc1ccc(C(=O)Nc2nnc(C(C)C)s2)cc1OCC | 0.3
28 | O=C(NCC(c1cccnc1)N1CCN(c2ccc(F)cc2)CC1)c1cccc(Cl)c1 (stereo unspecified) | 0.6
29 | C/C(=N\NC(=O)CSCc1cccc(Br)c1)c1ccc([N+](=O)[O-])cc1 | 0.0
30 | CCN(CC)C(=O)CSc1nc(C)cc(-c2cccs2)c1C#N | i
31 | O/N=C1\CCCc2oc3c(c21)CCCC3 | 0.8
32 | CN(C)c1ccc(/C=C/c2nc3ccccc3s2)cc1 | i
33 | COCCn1c(=O)[nH]c2cc(C(=O)NCc3ccccc3)ccc2c1=O | 0.2
34 | S=C(Nc1ccc(Br)cc1)N1CCN(C2CCCCC2)CC1 | i
35 | O=C(CCc1nc(-c2ccccc2)no1)NCc1cccnc1 | 1.2
36 | Cc1nc(CS(=O)c2ccccc2)cc(N2CCOCC2)n1 (stereo unspecified) | 0.5
37 | CCOC(=O)c1ccc(NC(=O)N2CCN(c3ccccn3)CC2)cc1 | 0.7
38 | COC(=O)c1ccccc1Oc1c(F)c(F)nc(N2CCOCC2)c1F | 0.9
39 | CC(=O)c1cccc(NC(=O)N2CCCc3ccccc32)c1 | i
40 | CCOC(=O)C1CCN(C(=O)CN(c2ccc(Cl)c(C(F)(F)F)c2)S(C)(=O)=O)CC1 | i
41 | CCC(=O)N1CCN(c2ccccc2NC(=O)c2cccc(C)c2)CC1 | i
42 | c1ccc(Cc2nnc(Sc3ccccc3)c3ccccc23)cc1 | i
43 | COc1cccc(C(=O)N(CN2CCCC2=O)c2ccccc2OC)c1 | i
44 | CCC(=O)N1CCc2cc(Br)cc(S(=O)(=O)CCC(=O)NCCOC)c21 | 1.0
45 | CC(=O)NCCSC(=O)c1ccc(F)cc1 | 0.4
46 | CCCC(CCC)C(=O)Nc1ccncc1 | 0.9
47 | Cc1cc(C)c(C)c(C(=O)CSc2nnc(C)c(=O)[nH]2)c1C | i
48 | CCc1cccc(C)c1NC(=O)C(c1ccccc1)N1CCC1=O (stereo unspecified) | i
49 | Cc1cc(C)cc(Oc2ccc(C(F)(F)F)cc2C#N)c1 | 0.1
50 | COc1ccc(CNC(=O)C(C#N)c2nc3ccccc3nc2N2CCN(C)CC2)cc1 (stereo unspecified) | i
51 | Cc1ccccc1C1=NCC(=O)N(CC(=O)NCc2ccco2)c2sc3c(c21)CCCC3 | 5.0
52 | O=C(COc1ccccc1)N1CCNC1=O | i
53 | O=C1NC2(Nc3ccccc31)C(=O)Nc1ccccc12 (stereo unspecified) | i
54 | CC(=O)c1ncnn1CC(=O)c1ccc(Cl)cc1Cl | i
55 | CCC(=O)Nc1nc2ccccc2n1CCN1CCOCC1 | i
56 | COc1ccc(NC(=O)N2CCCC2C(=O)Nc2ccc(C)c(Cl)c2)cc1 (stereo unspecified) | i
57 | Cc1cc(C)nc(N2CCC(C(=O)Nc3ccc4c(c3)CCC4)CC2)n1 | i
58 | COc1ccc(OCC(=O)O/N=C(\N)Cc2ccc(Cl)cc2Cl)cc1 | i
59 | CCc1ccc(C(C(=O)NCc2ccc(OC)cc2)N(CCOC)C(=O)Cc2cccs2)cc1 (stereo unspecified) | 1.5
60 | c1ccc2c(c1)OCC(c1csc3ncnc(N4CCCC4)c13)O2 (stereo unspecified) | i

New compounds follow
# | smiles | H5N1 CPE
61 | Cc1ccc(S(=O)(=O)N2CCN(C(=O)c3ccc(OCc4c(C)noc4C)cc3)CC2)cc1 | 0.5
62 | O=C(NCCc1ccccc1)c1ccccc1NS(=O)(=O)N1CCCC1 | 0.4
63 | CC(=O)NC1(c2cccc(F)c2)CCN(CC(=O)NC(C)C)CC1 | 0.1
64 | Cc1ccc2c(c1)NC(=O)C(CC(=O)N(C)Cc1ccccc1)O2 (stereo unspecified) | 2.1
65 | c1ccc(OCCN2C3=NCCN3c3ccccc32)cc1 | 2.8
66 | CCOC(=O)c1cc(CC)sc1N | i
67 | Cc1cc(/C=N/n2cnnc2)c(C)n1-c1ccccc1 | i
68 | COc1ccc(N(CC(=O)Nc2ccc3c(c2)OCCO3)S(C)(=O)=O)c(OC)c1 | 0.0
69 | COc1ccc(C2(C#N)CC[N+](C)(C)CC2)cc1 | i
70 | CCCn1c(Sc2nc3c(c(=O)[nH]c(=O)n3C)n2CCC)nc2c1c(=O)[nH]c(=O)n2C | 0.6
71 | O=S(=O)(c1ccc2ccccc2c1)N1C=CC(C(F)(F)F)=NCC1 | 0.6
72 | CC(/C=N/n1cnnc1)=C\c1ccccc1 | i
73 | O=C(NCc1ccccc1)c1cccnc1N1CCOCC1 | 0.3
74 | O=C(NCCN1CCOCC1)c1cc2ccccc2o1 | 1.0
75 | CCCCN1C(=O)C(NC(=O)CC(C)C)(C(F)(F)F)C2=C1CC(C)(C)CC2=O (stereo unspecified) | i
76 | COCc1c(C(=O)OCc2nc(N)nc(Nc3ccccc3C)n2)oc2ccccc12 | i
77 | CC(C(=O)NC1CCCC1)N(Cc1ccc2c(c1)OCO2)C(=O)c1snc(C(N)=O)c1N (stereo unspecified) | i
78 | O=C(COc1ccccc1F)NC1CC1 | 0.1
79 | COC(=O)[C@H](C)NC(=O)COc1ccccc1 | i
80 | C=CCSc1nnc(-c2ccc(Cl)cc2Cl)o1 | 37.9*
81 | CCSc1ncc(/C=N/Nc2ccccc2)n1C | i
82 | Cc1ccc(C)c2nc(SCC(=O)N3CCCc4ccccc43)c(C#N)cc12 | 0.8
83 | CCCCN(CCCC)C(=O)CN(C)S(=O)(=O)c1ccc2c(c1)n(C)c(=O)c(=O)n2C | 0.5
84 | COC(=O)CSc1nnc(CNc2ccc(Cl)cc2)n1-c1ccccc1 | 0.2
85 | O=C(NCc1cccs1)c1noc2c1CCCC2 | 0.4
86 | CS(=O)(=O)N1CC(C(=O)NN)Oc2ccc(Cl)cc21 (stereo unspecified) | 0.1
87 | O=C(CSc1nnc(-c2ccoc2)o1)N1CCOCC1 | 2.0
88 | CCOC(=O)c1cnn(-c2ccccc2)c1NC(=O)c1ccccc1 | 0.1
89 | COC(=O)c1sc(NC(=O)CSc2nncs2)c(C(=O)OC)c1C | 0.7
90 | Cc1cc(=O)[nH]c(SCC(=O)c2c(N)n(C)c(=O)n(C)c2=O)n1 | i
91 | Cc1ccc(C)c(NC(=O)c2ccc(N(C)S(C)(=O)=O)cc2)c1 | 0.3
92 | Cc1ccc(C(=O)COC(=O)CNC(=O)Cc2ccccc2)cc1[N+](=O)[O-] | 0.6
93 | O=C(O)CSc1nnc(Cn2c(=O)sc3ccccc32)n1-c1cccc(Cl)c1 | 1.0
94 | CCS(=O)(=O)c1ccc(-c2csc(-c3ccccc3)n2)c(Cl)c1Cl | 0.8
95 | Cc1cc(C)n(CC(O)Cn2c3ccccc3c3ccccc32)c(=O)n1 (stereo unspecified) | 1.3
96 | Cn1cnc2cc(OC(=O)c3ccccc3)ccc21 | 0.0
97 | O=C(COc1cccc2ccccc12)N1c2ccccc2CCc2ccccc21 | 1.7
98 | CCCCNC(=S)NNC(=O)c1ccoc1C | i
99 | O=C1c2oc3ccc(F)cc3c(=O)c2C(c2ccccc2)N1CC1CCCO1 (stereo unspecified) | 0.1
100 | CC1CCc2cc(F)ccc2N1C(=O)CSc1nnc2c(n1)[nH]c1ccc(F)cc12 (stereo unspecified) | 0.9
101 | COc1cc(OC)c(C2C3=C(CCCC3=O)Nc3nc4ccccc4n32)cc1OC (stereo unspecified) | 0.5
102 | Cc1ccc(C(=O)n2cnnc2N)cc1 | 0.4
103 | COc1ccccc1NC(=O)COc1ccc(/C=N/NC(=O)CSCc2ccc(Cl)cc2)cc1 | i
104 | COc1cccc(-c2cc(C(F)(F)F)n3ncc(C(=O)O)c3n2)c1 | 0.8
105 | Cc1ccc(F)cc1NC(=O)CCC(=O)c1cccs1 | i

Four entries from above, as labelled records.
(69) COc1ccc(C2(C#N)CC[N+](C)(C)CC2)cc1
  H5N1 CPE: i

(70) CCCn1c(Sc2nc3c(c(=O)[nH]c(=O)n3C)n2CCC)nc2c1c(=O)[nH]c(=O)n2C
  H5N1 CPE: 0.6

(71) O=S(=O)(c1ccc2ccccc2c1)N1C=CC(C(F)(F)F)=NCC1
  H5N1 CPE: 0.6

(72) CC(/C=N/n1cnnc1)=C\c1ccccc1
  H5N1 CPE: i

(listing goes on)
# | smiles | H5N1 CPE
106 | N#Cc1cc2ccccc2nc1SCC(=O)Nc1ccc(S(=O)(=O)N2CCCC2)cc1 | 0.4
107 | CCc1cc(C)cc(OCCNC(=O)c2ncn[nH]2)c1 | i
108 | Cc1ccc(CCNC(=O)C2CCC(=O)N2Cc2cccnc2)cc1 (stereo unspecified) | i
109 | COc1ccc(/C(O)=C2/C(=O)C(=O)N(CCCN(C)C)C2c2ccccc2)cc1OC (stereo unspecified) | i
110 | CC(C)N=C(Nc1ccccc1)c1cccnc1 | 0.1
111 | CCc1c(C)nc2ncnn2c1N1CCCC(C(=O)Nc2ccc(NC(C)=O)cc2)C1 (stereo unspecified) | 0.9
112 | CCC(CC)C(=O)NCCN1CCN(C(=O)C(CC)CC)CC1 | i
113 | CC(C)COC(=O)Nc1nnc(SCCOc2ccccc2)s1 | i
114 | O=C(Cn1cnc2c(nnn2Cc2ccc(F)cc2)c1=O)N1CCCCC1 | 0.1
115 | O=C(CCCn1c(=S)[nH]c2cc3c(cc2c1=O)OCO3)N1CCN(c2ccccc2F)CC1 | 1.4
116 | Cc1ccc(CNC(=O)CCNS(=O)(=O)c2ccc(C)cc2)cc1 | 0.8
117 | CCn1c(CC(=O)Nc2cccc(OC)c2)nnc1SCC(=O)Nc1nccs1 | i
118 | CCOC(=O)c1sc2ncn(C(C)C(=O)OCC)c(=O)c2c1C (stereo unspecified) | 0.9
119 | COC(=O)c1cc(NC(=O)CSc2nncn2C)cc(C(=O)OC)c1 | 1.6
120 | CCOC(=O)c1[nH]c(C)c(C(=O)NCc2ccc(OC)cc2)c1C | i
121 | O=S(=O)(N/N=C/c1c(F)cccc1Cl)c1ccccc1 | 0.1
122 | CCn1c(SCC(=O)NCCc2ccc(OC)c(OC)c2)nc2c1c(=O)n(C)c(=O)n2C | 2.7
123 | Brc1cc2c(cc1Cn1c(-c3cncs3)nc3ccccc31)OCO2 | 0.8
124 | CCCCOC(=O)CCNc1n[nH]c(=O)[nH]c1=O | i
125 | CCOC(=O)c1cc(-c2ccccc2)sc1NC(=O)CN1C(=O)NC(CC)(c2ccccc2)C1=O (stereo unspecified) | i
126 | O=C(NCC1COc2ccccc2O1)C1C2C=CC3(CN(Cc4cccs4)C(=O)C13)O2 (stereo unspecified) | 0.9
127 | Cc1ccc(-n2c(N)c(C(=O)NCc3ccco3)sc2=S)cc1 | 3.0
128 | O=[N+]([O-])c1ccc(Sc2nccn2Cc2ccccc2)cc1 | 0.7
129 | O=C(c1cccc(F)c1)N1CCN(c2cc(N3CCCCC3)c(F)cc2[N+](=O)[O-])CC1 | 0.1
130 | Cc1cc(C)n2nnnc2c1C#N | i
131 | COC(=O)c1sccc1NC(=O)CN(C)NS(=O)(=O)c1ccc(F)cc1 | 1.2
132 | CCc1nnc(SCc2cn3c(C)cc(C)nc3n2)n1N | 0.2
133 | O=C(CCc1ccccc1)NC(=S)Nc1cc(C(F)(F)F)ccc1N1CCOCC1 | 0.8
134 | Cc1ccnc(-n2c(-c3ccco3)nc3ccccc3c2=O)c1 | i
135 | Cc1ccc(Cn2c(C(=O)NCCCN3CCOCC3)cc3sccc32)cc1 | i
136 | CCOC(=O)N1CCC(n2c(=S)[nH]c3ccccc3c2=O)CC1 | i
137 | COC(=O)c1nnn(CC(=O)Nc2cccc(Cl)c2)c1C(=O)OC | 1.1

Some values from the list:
Entry of O=C(NCc1cccs1)c1noc2c1CCCC2 in H5N1 CPE: 0.4
Entry of Cc1ccccc1C1=NCC(=O)N(CC(=O)NCc2ccco2)c2sc3c(c21)CCCC3 in H5N1 CPE: 5.0
